PABP FP inh: blocks human PABP binding to poly(A) RNA; inhibition, % at 35 µM; P11940; 290,000 tested, 1% active; fluorescence polarization;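 active = 50% or more with normal probe brightness, or confirmed in later tests; inconclusive = above 50% with abnormal brightness, or retests that disagree; inactive = below 50% or failed in later tests; about a fifth of its hits are not listed in these tables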;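 also: calls also rest on retests at 20 µM and on dose response follow-up; controls were probe without protein and protein plus probe with vehicle; some compounds called inactive have numbers as strong as hits; many hits fall short of the cut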
Target sequence (P11940 whole entry, looked up): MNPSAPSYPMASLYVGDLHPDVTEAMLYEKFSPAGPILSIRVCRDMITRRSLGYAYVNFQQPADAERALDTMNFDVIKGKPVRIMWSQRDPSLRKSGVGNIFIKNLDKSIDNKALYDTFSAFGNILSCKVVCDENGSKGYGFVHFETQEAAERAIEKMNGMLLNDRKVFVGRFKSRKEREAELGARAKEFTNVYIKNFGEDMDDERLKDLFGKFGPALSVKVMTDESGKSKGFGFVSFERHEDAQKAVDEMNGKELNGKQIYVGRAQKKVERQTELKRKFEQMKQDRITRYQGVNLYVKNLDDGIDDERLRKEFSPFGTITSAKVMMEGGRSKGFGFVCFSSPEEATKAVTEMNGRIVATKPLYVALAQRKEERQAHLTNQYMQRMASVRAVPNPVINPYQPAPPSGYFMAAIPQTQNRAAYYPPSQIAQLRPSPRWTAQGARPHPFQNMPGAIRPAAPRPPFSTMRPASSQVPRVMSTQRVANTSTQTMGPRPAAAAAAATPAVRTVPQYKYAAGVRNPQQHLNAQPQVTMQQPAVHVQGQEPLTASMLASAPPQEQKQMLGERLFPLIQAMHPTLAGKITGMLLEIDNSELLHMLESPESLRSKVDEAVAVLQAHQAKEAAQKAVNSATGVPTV
Env fusion inh: HIV envelope-mediated fusion inhibition; inhibition, % at 12.3 µM; AID 651610; HeLa-JRFL Env/CEM21 cell fusion, luciferase; 360,000 tested, 1.1% active;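 active = mean replicate inhibition score of at least 50 and every replicate individually at or above 50; inconclusive = only one of the two criteria met; inactive = mean below 50 and not all replicates reaching 50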;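 also: 0% = plate neutral controls and 100% = maraviroc near 300 nM; one replicate is shown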
UUG fidelity: alters start codon recognition fidelity in yeast | S. cerevisiae UUG-firefly luciferase reporter, luminescence/redox ratio | 350,000 tested, 0.13% active | activity score, % at 18.7 µM;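 active = replicate mean at a twofold rise or more, about +100% in these data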;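 also: firefly luciferase made from a UUG start codon reports start codon fidelity; reporter light over untreated wells divided by growth signal over untreated wells; some hits fall short of that in this replicate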
eIF4H inh: inhibitors of RNA binding by human eIF4H; Q15056; eIF4H fluorescence polarization binding assay; inhibition, % at 35 µM; 290,000 tested, 0.94% active; AID 2012;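 active = 50% or more with normal probe brightness, or confirmed in later tests; inconclusive = above 50% with abnormal brightness, or retests that disagree; inactive = below 50% or failed in later tests; about a fifth of its hits are not listed in these tables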;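 also: calls also rest on retests at 20 µM and on dose response follow-up; 0% = protein and probe with vehicle and 100% = probe without protein; strong numbers were not always called active; many hits fall short of the cut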
MT1-MMP act inh: inhibitors of human MT1-MMP activation. P50281. HT1080 RFP-PRO-GFP cells, GFP/RFP ratio fluorescence, overnight; percent of plate control window, DMSO zero. GFP/RFP ratio change, % at 20 µM. 360,000 tested, 0.061% active. AID 651647;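 active = GFP/RFP ratio change of at least 30% with cell ATP level not reduced by more than half and red fluorescence within 50% of control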; also: strong numbers were not always called active
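Test system: HT1080 RFP-PRO-GFP cells; Benchmarks: DMSO and RFP-L50D-GFP cell wells; Timing: cells overnight before dosing, compound overnight, 37 °C, 5% CO2; Compound: one 20 µM compound dose with 1% DMSO; Read-out: GFP/RFP fluorescence ratio.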
CSC inhib: blocks cancer stem cells | cancer stem cell-like cells viability, luminescence | inhibition, % at 7.5 µM | 300,000 tested, 1.1% active;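 active = mean at 75% or more and at least half the replicates too; inconclusive = mean and replicates disagree; tested in HMLE shEcad cells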;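 also: 0% = median of negative and 100% = median of positive control wells; the first replicate is given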
Rce1 inh: blocks yeast Ras-converting enzyme; calls only; 290,000 tested, 0.27% active; yeast membranes, quenched prenylated peptide cleavage fluorescence; AID 2563;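 active = fall in fluorescence gain of 50% or more versus controls, with final raw signal at or below 3038400; inconclusive = same 50% fall but final raw signal above 3038400; inactive = fall in fluorescence gain under 50%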;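 also: plate controls were neutral control wells for no effect and wells lacking membranes for full effect; tested at 10 µM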
MT1-MMP act inh RFP: further read-out of MT1-MMP act inh, marked with its call; RFP signal change, %; measured here: RFP expression control read;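 0 = vehicle wells; hits needed this value within 50% of zero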
* hit, by the source's call; i = inactive; ? = inconclusive; . = no result given. Only part of the results is shown, so the mix of outcomes need not match the whole.

nr | structure | PABP FP inh | Env fusion inh | UUG fidelity | eIF4H inh
1 | CC(=O)[C@@]1(O)CC[C@H]2[C@@H]3CC=C4C[C@@H](O)CC[C@]4(C)[C@H]3CC[C@@]21C | 18.8 | -0.3 | -8.5 | 4.7
2 | CNc1cc(N2CCN(C)CC2)ccc1[N+](=O)[O-] | -5.3 | -2.7 | . | 9.9
3 | CN(C)C(=O)Oc1c(Cl)cc(Cl)c2ccccc12 | -10.3 | . | -0.6 | -2.2
4 | O=c1c2ccccc2nc(/C=C/c2ccc([N+](=O)[O-])o2)n1-c1ccc(O)cc1 | -5.5 | i | . | 44.1
5 | O=c1[nH]c(O)c(C=Nc2ccc(Cl)c(C(F)(F)F)c2)c(=O)[nH]1 | ? | -14.3 | -13.3 | ?
6 | COc1ccc(OC)c(N2C(=O)NC(=O)/C(=C/c3ccc([N+](=O)[O-])s3)C2=O)c1 | 1.1 | 2.9 | -9.8 | 45.3
7 | c1cncc(CNC2=NCCC2)c1 | -6.5 | -62.6 | -20.0 | -5.3
8 | COC(=O)C1=C(c2ccc(F)cc2F)C[C@@H]2CC[C@H]1N2C(=O)NC1CCCCC1 | . | . | -7.7 | .

nr | MT1-MMP act inh | MT1-MMP act inh RFP | CSC inhib | Rce1 inh
1 | 2.7 | 1.5 | -11.8 | i
2 | 0.6 | 1.7 | -10.7 | i
3 | -1.9 | 1.0 | 0.9 | i
4 | -162.5 | -26.4 | . | i
5 | 0.0 | 0.4 | . | i
6 | -5.3 | 6.2 | -2.1 | i
7 | 1.3 | 7.7 | -6.5 | i
8 | 2.8 | 2.5 | 12.3 | .

Next section.
nr | structure | PABP FP inh | Env fusion inh | UUG fidelity | eIF4H inh
9 | Cc1cc(=O)oc2c(C)c(OCC(=O)N3CCC(C(=O)O)(c4ccccc4)CC3)ccc12 | 8.5 | . | -4.2 | -2.8
10 | CCCN1CC[C@@H]2c3cc(O)ccc3CC[C@@H]21 | . | ? | -3.6 | .
11 | CCN(CC)CCC(=O)O[C@H]1CC[C@]2(C)C3CC[C@@]4(C)C(CC[C@]4(C)O)C3CC[C@H]2C1 (some centres undefined) | . | -4.7 | -15.7 | .
12 | COc1cc2[nH]c(=S)n(-c3ccccc3)c(=O)c2cc1OC | 24.5 | -0.6 | -5.5 | 4.3
13 | CCOP(=O)(Cc1ccccc1)OCC | . | 21.0 | -17.3 | .
14 | CSc1ccccc1C(=O)C1CCCN(Cc2ccncc2)C1 (centres undefined) | -0.1 | 4.3 | 5.4 | 6.8
15 | Cn1c(CN2CCN(C(=O)COc3ccccc3)CC2)nc2cc([N+](=O)[O-])ccc21 | 3.7 | 12.4 | . | 4.8
16 | CCc1cc2c(N3CCN(C)CC3)ncnc2s1 | 4.7 | 18.8 | -18.6 | 2.7

nr | MT1-MMP act inh | MT1-MMP act inh RFP | CSC inhib | Rce1 inh
9 | -0.3 | 4.6 | -8.8 | i
10 | 3.1 | 3.5 | -13.2 | .
11 | 2.0 | 2.7 | -4.6 | .
12 | -0.3 | 0.4 | -15.8 | i
13 | 1.8 | 7.2 | -12.3 | i
14 | 0.6 | -2.3 | -2.6 | i
15 | 4.6 | -4.3 | -14.0 | i
16 | -11.2 | 0.9 | 2.8 | i

Record cards (already shown):
Record of CN(C)C(=O)Oc1c(Cl)cc(Cl)c2ccccc12 = PABP FP inh: -10.3; Env fusion inh: .; UUG fidelity: -0.6; eIF4H inh: -2.2; MT1-MMP act inh: -1.9; MT1-MMP act inh RFP: 1.0; CSC inhib: 0.9; Rce1 inh: i
Record of CCCN1CC[C@@H]2c3cc(O)ccc3CC[C@@H]21 = PABP FP inh: .; Env fusion inh: ?; UUG fidelity: -3.6; eIF4H inh: .; MT1-MMP act inh: 3.1; MT1-MMP act inh RFP: 3.5; CSC inhib: -13.2; Rce1 inh: .
Record of CCOP(=O)(Cc1ccccc1)OCC = PABP FP inh: .; Env fusion inh: 21.0; UUG fidelity: -17.3; eIF4H inh: .; MT1-MMP act inh: 1.8; MT1-MMP act inh RFP: 7.2; CSC inhib: -12.3; Rce1 inh: i

(next part)
nr | structure | PABP FP inh | Env fusion inh | UUG fidelity | eIF4H inh
17 | c1ccc(NC2=NCCS2)cc1 | 5.8 | -3.1 | -10.6 | 0.0
18 | CCC1(C2=NCCN2)Cc2ccccc2O1 (centres undefined) | . | -2.0 | -18.7 | .
19 | COc1cccc(CCNCc2c(F)cccc2F)c1 | -2.6 | -7.8 | . | 5.4
20 | COc1cc(CN2C(=O)NC(=O)C3(Cc4cc(C)ccc4N(C)C3)C2=O)cc(OC)c1 (centres undefined) | 5.7 | -135.9 | -4.5 | -3.1
21 | COc1ccc(-n2c(O)c(/C=C3\C=Nc4ccc(Br)cc43)c(=O)[nH]c2=O)cc1 | ? | 5.8 | 6.8 | ?
22 | CC1(C)CC(N(CCc2ccccc2)Cc2ccccc2)CCO1 (centres undefined) | 3.8 | 17.9 | -16.1 | -10.2
23 | O=C1NC(=O)C(C2CCOC2=O)N1 (centres undefined) | . | -13.5 | -14.3 | .
24 | COc1ccc2c(C)c(CC(=O)N3C[C@H]4C[C@@H](C3)c3cccc(=O)n3C4)c(=O)oc2c1C | -2.2 | . | -5.3 | -3.5

nr | MT1-MMP act inh | MT1-MMP act inh RFP | CSC inhib | Rce1 inh
17 | 1.4 | 2.6 | -3.9 | .
18 | 2.2 | -0.8 | -5.4 | .
19 | 0.2 | -1.0 | -6.2 | i
20 | -3.2 | 3.5 | . | i
21 | -4.7 | 0.6 | 73.6 | i
22 | -2.0 | 2.0 | 1.0 | i
23 | -0.6 | 3.2 | . | .
24 | -2.2 | -2.5 | -10.9 | i

Next part
nr | structure | PABP FP inh | Env fusion inh | UUG fidelity | eIF4H inh
25 | CC(=O)c1ccc2c(c1)OCO2 | 29.6 | . | -18.3 | 0.2
26 | CCc1ccccc1N1C(=O)CC(=O)NC1=O | ? | -4.0 | -9.9 | 12.8
27 | COc1ccc(-c2ccc3n2Cc2cnnn2-c2ccccc2-3)cc1 | . | 20.5 | -7.2 | .
28 | CCN(CC)C(=O)c1ccc(NC(=O)c2ccc3c(c2)NC(=O)CS3)cc1 | . | -33.8 | . | .
29 | CC1CCC2[C@@H](C)C(=O)OC3O[C@]4(C)CCC1C32OO4 (some centres undefined) | . | 9.8 | 57.1 | .
30 | COCCN1C(=O)NC(=O)/C(=C\c2ccc(Br)cc2)C1=O | 1.2 | -9.3 | . | -14.6
31 | O=c1c2ccccc2nc(-c2ccc(-c3ccccc3)cc2)n1-c1ccncc1 | 3.1 | . | -8.7 | -0.8
32 | COc1ccc(NC(=S)N2Cc3ccccc3-n3nncc3C2)c(OC)c1 | . | -41.7 | -18.8 | .

nr | MT1-MMP act inh | MT1-MMP act inh RFP | CSC inhib | Rce1 inh
25 | 0.0 | 0.4 | 3.0 | i
26 | -8.1 | -1.3 | 2.6 | i
27 | -5.0 | -9.7 | . | .
28 | 0.1 | -2.5 | -7.4 | .
29 | -2.5 | -0.5 | -6.3 | i
30 | 1.8 | 3.7 | -2.0 | i
31 | -12.8 | -3.9 | -3.1 | i
32 | -3.6 | -8.6 | . | .

Following part
nr | structure | PABP FP inh | Env fusion inh | UUG fidelity | eIF4H inh
33 | O=C1NC(=S)NC(=O)C1C/C=C/c1ccccc1 | 4.0 | . | . | -3.9
34 | CN(C)P(=NC(=S)c1cccn1C)(N(C)C)N(C)C | -2.4 | -38.7 | -28.6 | 4.9
35 | OC(c1ccc(F)cc1)(c1ccc(F)cc1)[C@@H]1CCCN1 | -2.7 | . | -18.9 | -7.5
36 | CN1CCC2(CC1)CC(NC=O)c1ccccc1O2 (centres undefined) | -9.1 | -8.3 | . | 4.3

nr | MT1-MMP act inh | MT1-MMP act inh RFP | CSC inhib | Rce1 inh
33 | -5.3 | 2.8 | -4.0 | i
34 | 1.8 | 7.3 | -3.9 | i
35 | -1.8 | 3.0 | 11.8 | i
36 | -2.1 | 3.9 | -5.0 | i

Reformatted field by field: three of the compounds above.
25. CC(=O)c1ccc2c(c1)OCO2
- PABP FP inh: 29.6
- Env fusion inh: .
- UUG fidelity: -18.3
- eIF4H inh: 0.2
- MT1-MMP act inh: 0.0
- MT1-MMP act inh RFP: 0.4
- CSC inhib: 3.0
- Rce1 inh: i

9. Cc1cc(=O)oc2c(C)c(OCC(=O)N3CCC(C(=O)O)(c4ccccc4)CC3)ccc12
- PABP FP inh: 8.5
- Env fusion inh: .
- UUG fidelity: -4.2
- eIF4H inh: -2.8
- MT1-MMP act inh: -0.3
- MT1-MMP act inh RFP: 4.6
- CSC inhib: -8.8
- Rce1 inh: i

1. CC(=O)[C@@]1(O)CC[C@H]2[C@@H]3CC=C4C[C@@H](O)CC[C@]4(C)[C@H]3CC[C@@]21C
- PABP FP inh: 18.8
- Env fusion inh: -0.3
- UUG fidelity: -8.5
- eIF4H inh: 4.7
- MT1-MMP act inh: 2.7
- MT1-MMP act inh RFP: 1.5
- CSC inhib: -11.8
- Rce1 inh: i
